# Bioassay records as filed in PubChem BioAssay.
# SARS PLpro yeast – blocks SARS-CoV papain-like protease in a yeast assay | S. cerevisiae expressing SARS-CoV PLpro, growth rescue; control for the full effect not named in the record | Potency, µM (top dose mostly 32.9 µM), inactives show top-dose activity, positive = growth rescue | 330,000 compounds, 0.19% hits | AID 485353; active means well fitted rising curve with a large enough effect; inconclusive means small, poorly fitted or top-dose-only effect; inactive means no such curve, though single readings can be large or run the other way; also: 0% is about no effect; nearly all actives have a fitted effect of over 55% in size; growth read by luminescence after 48 h
# NS1 inh – blocks influenza NS1 protein function; 270,000 compounds, 0.4% hits; Potency, µM (doses to about 46.1 µM), without a hit: at the highest dose activity, positive = more growth; S. cerevisiae slowed by influenza A NS1, growth recovery by OD600; active means well fitted rising curve with a large enough effect; inconclusive means small, poorly fitted or top-dose-only effect; inactive means no such curve, though single readings can be large or run the other way; also: nearly all actives have a fitted effect of over 50% in size
#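 Growth recovery, yeast-based: influenza A NS1 expressed in S. cerevisiae causes slow growth, and suppressors are detected by OD600. The parent strain without NS1 is used as positive control.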
# Marburg entry inh – inhibitors of Marburg virus binding or cell entry; Marburg virus pseudotyped entry inhibition, cell reporter; control for the full effect not named in the record; about a third of the inactives were read at about 46 µM; Potency, µM (highest dose often 37.8 µM), inactives show at the highest dose activity change, negative = inhibition, hits mostly inhibitors; 300,000 compounds, 1.8% hits; active = well fitted inhibition curve with a large enough effect; inconclusive = small, poorly fitted or top-dose-only effect, or effect the other way; inactive = flat fitted curve, though single readings scatter; tested in HEK293 cells; about a fifth of its hits are not listed in these tables; also: % is scaled to controls: 0 for no effect and ±100 for the full control effect; luciferase read-out
# LASV entry inh – inhibitors of Lassa virus binding or cell entry; Potency, µM (titrated, usually from 37.9 µM), without a hit: top-dose activity change, negative = inhibition, usual class: inhibitors; Lassa virus pseudotype entry inhibition, cell reporter; control for the full effect not named in the record; 300,000 compounds, 1.2% hits; active means well fitted inhibition curve with a large enough effect; inconclusive means small, poorly fitted or top-dose-only effect, or effect the other way; inactive means flat fitted curve, though single readings scatter; tested in HEK293 cells; also: % is scaled to controls: 0 for no effect and ±100 for the full control effect; nearly all actives have a fitted effect of over 50% in size; luciferase read-out
# Cruzain inh noDet – blocks cruzain activity in detergent-free assay; P25779; purified cruzain, Z-FR-AMC fluorescence, no detergent; Potency, µM, without a hit: max response, negative = inhibition, usual class: inhibitors; 200,000 compounds, 2.3% hits; AID 1476;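 also: plate controls were enzyme without inhibitor for no effect and buffer without enzyme for full effect; nearly all actives have a fitted effect of over 40% in size; top concentration of the series not given in the record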
# Target sequence (P25779 123-467 limits assumed): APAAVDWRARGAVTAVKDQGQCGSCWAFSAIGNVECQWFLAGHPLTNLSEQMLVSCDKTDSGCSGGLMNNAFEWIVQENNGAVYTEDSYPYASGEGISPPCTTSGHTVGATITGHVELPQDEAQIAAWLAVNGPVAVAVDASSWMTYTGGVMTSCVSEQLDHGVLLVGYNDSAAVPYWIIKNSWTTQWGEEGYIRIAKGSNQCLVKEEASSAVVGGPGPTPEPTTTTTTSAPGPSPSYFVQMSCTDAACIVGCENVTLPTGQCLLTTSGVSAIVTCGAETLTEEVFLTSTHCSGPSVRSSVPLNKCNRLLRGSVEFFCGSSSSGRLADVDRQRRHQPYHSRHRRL
#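 Detergent-free condition (0.00005% Triton X-100) in acetate buffer pH 5.5 with DTT. 1.5 nM enzyme and compound were pre-mixed 15 min, then 2 uM Z-FR-AMC substrate added; reaction progress from fluorescence change between first and third reads (60 s).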
# StopGo reporter – FMDV 2A StopGo reporter, luciferase signal. human cells with a luciferase reporter of 2A StopGo recoding; control for the full effect not named in the record. Potency, µM (titrated, usually from 57.9 µM), inactives show at the top dose signal change, negative = less light. 410,000 compounds, 1.2% hits. AID 1159524; active = well fitted falling curve with a large enough effect; inconclusive = small, poorly fitted or top-dose-only effect; inactive = no such curve, though single readings can be large or run the other way; tested in HEK293T cells; also: % is scaled to controls: 0 for no effect and ±100 for the full control effect; nearly all actives have a fitted effect of over 45% in size; luciferase light after 4 h
# RE007 growth inh – less growth of the S. pombe RE007 Vpr strain | S. pombe RE007 Vpr strain, BacTiter-Glo ATP luminescence, 24 h; control for the full effect not named in the record | Potency, µM (titrated, usually from 92.2 µM), for inactives: top-dose activity change, negative = less growth | 360,000 compounds, 0.21% hits | AID 651644; active = well fitted falling curve with a large enough effect; inconclusive = small, poorly fitted or top-dose-only effect; inactive = no such curve, though single readings can be large or run the other way;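 also: % is scaled to controls: 0 for no effect and ±100 for the full control effect; nearly all actives have a fitted effect of over 50% in size; the assay follows cell death caused by Vpr and the record does not say whether a fall means rescue or toxicity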
#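 Fission yeast RE007 carrying one integrated HIV-1 vpr copy, seeded at OD 0.01 in PMG+AL medium with 23 nL pinned compound. Grown 24 h at 30 degrees; viability read by BacTiter-Glo luminescence after 5 min.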
# Cruzain inh Det – blocks cruzain activity in presence of Triton detergent; P25779; purified cruzain, Z-FR-AMC fluorescence, 0.01% Triton; Potency, µM, inactives show max response, negative = inhibition, hits mostly inhibitors; 200,000 compounds, 0.43% hits; AID 1478;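 also: plate controls were neutral wells for no effect and buffer without enzyme for full effect; nearly all actives have a fitted effect of over 40% in size; top concentration of the series not given in the record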
#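 Read-out: AMC fluorescence (360 nm excitation, 450 nm emission), four reads over 2 min, first-to-third difference used. Conditions: cruzain 1.5 nM, Z-FR-AMC 2 uM, pH 5.5 acetate, 5 mM DTT, 0.01% Triton X-100.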
# An asterisk follows results filed as active; ? = inconclusive; . = no result given; [ ] = remark or other dose. Unless noted, calls follow the shape of the dose curve; as a rule, active = well fitted curve in the direction sought with a large enough effect; inconclusive = small, poorly fitted or top-dose-only effect, or another doubt; inactive = no such curve, though single readings can be large; an effect the other way counts as inactive or inconclusive. Potency is read from the fitted curve at half-maximal effect.
# Under each structure – SARS PLpro yeast	NS1 inh	Marburg entry inh	LASV entry inh	Cruzain inh noDet	StopGo reporter	RE007 growth inh	Cruzain inh Det
Cc1c(O)ccc(C(=O)CN2CCN(Cc3ccc4c(c3)OCO4)CC2)c1O
  -10%	12%	1%	-24%	-6%	-24%	.	-4.0%
CCCCCCOc1ccc(-c2ccc(C#N)cn2)cc1
  -4%	2%	-6%	11%	16%	35%[activator]	-18%	-23%
COc1ccc(Nc2ccc3nnc(-c4ccc(Br)cc4)n3n2)cc1
  -4%	4%	.	.	-2%	.	.	1.1%
Cc1cccc(C(=O)Nc2ccc(NC(=O)Cc3ccc(Cl)cc3)cc2)c1
  9%	7%	14%	6%	?	-10%	11%	0.8%
CCC(CC)COC(=O)C1=C(C)NC(=O)NC1c1cc(OC)ccc1OC (stereo not given)
  6%	6%	.	.	.	2%	16%	.
O=C(CCC1CCCC1)NNC(=O)c1ccccc1O
  1%	.	8%	7%	.	8%	0%	.
COc1cc([N+](=O)[O-])ccc1NC(=O)CSc1nncn1-c1cccnc1
  6%	4%	-3%[46.1 µM]	?	.	-13%	-10%	.
CCN(CC)C(=O)C1CCCN(c2ccc([N+](=O)[O-])cc2/C=N/NC(=O)c2cccc(O)c2)C1 (stereo not given)
  16%	2%	-14%	-25%	39%	-14%	13%	-10%
CCOc1ccc(CN(C)C(=O)CNC(=O)c2ccc(Br)o2)cc1OC
  5%	10%	-1%[46.1 µM]	3%	.	32%[activator]	-4%	.
O=C(NCc1ccccc1)C12CC3CC(CC(Cl)(C3)C1)C2
  -1%	-1%	8%	-1%	.	-19%	40%	.
O=C(COC(=O)Cc1ccccc1)Nc1nnc(-c2ccccc2)o1
  -3%	.	1%[46.1 µM]	14%	.	-14%	3%	.
Oc1ccccc1-c1nnco1
  .	.	?	0%	.	4%	-5%	.
COCCNC(=O)C(=O)Nc1ccc2nc3n(c(=O)c2c1)CCCCC3
  .	.	9%[46.1 µM]	?	3%	-3%	.	-3.3%
CC(=O)Nc1ccc2c(c1)C(=O)N(c1cccc3ccccc13)C2=O
  -7%	-28%	11%	0%	.	?	6%	.
COc1ccc(-n2c(O)c(/C=C3\C=Nc4ccc(Br)cc43)c(=O)[nH]c2=O)c(OC)c1
  1%	2%	?	?	.	25µM*	4%	.
COCCNC(=O)CSc1nc(-c2ccccc2)[nH]c1-c1ccc(C)cc1
  .	.	?	6%[46.1 µM]	-10%	-6%	.	-0.1%
COc1cccc2c(C)cc3nnc(SCC(=O)Nc4ccc(C)cc4)n3c12
  .	.	-9%[46.1 µM]	-21%[46.1 µM]	-10%	1%	.	-1.0%
CCOC(=O)N1CCC(NC(=S)Nc2ccc3nc(N4CCN(CC)CC4)cc(C)c3c2)CC1
  -1%	-8%	.	.	.	-9%	-7%	.
COc1ccc(-n2c(=O)c3ccccc3n(Cc3ccccc3Cl)c2=O)cc1
  .	.	4%[46.1 µM]	-21%[46.1 µM]	7%	-10%	.	3.5%
CCCn1c(SCC(=O)NNC(=O)c2ccc(C)cc2)nnc1C(C)C
  0%	0%	7%[46.1 µM]	-1%	.	2%	-24%	.
O=C(CN1CCc2cc3c(cc2C1)OCCCO3)Nc1ccc(F)cc1
  0%	-6%	-1%[46.1 µM]	0%[46.1 µM]	.	-5%	-3%	.
Cn1ccnc1Sc1nnnn1-c1ccccc1
  -1%	0%	1%	-9%	-1%	6%	-11%	3.4%
Cc1ccc(OCCCC(=O)Nc2ccc(Br)cc2)cc1
  0%	-2%	6%	-3%	-6%	3%	5%	-2.0%
Cc1ccc(CCNC(=O)CN2CCN(Cc3ccccc3F)C2=O)cc1
  -2%	-5%	18%	-13%	14%	1%	10%	2.8%
CN(C)c1ccc(C(C(=O)NCC2CCCO2)N(C(=O)c2snc(C(N)=O)c2N)c2ccccc2)cc1 (stereo not given)
  4%	-4%	?	24%[46.1 µM]	.	-14%	-1%	.
CC(=O)c1ccccc1NC(=O)CCNC(=O)c1ccco1
  0%	-14%	29%[46.1 µM]	15%	.	6%	25%	.
CC(=O)N1CCN(Cc2nc(C(c3ccccc3)c3ccccc3)no2)CC1
  3%	-1%	16%[46.1 µM]	23%[46.1 µM]	.	-13%	14%	.
S=c1[nH]c2ccccc2o1
  0%	1%	.	.	.	13%	-1%	.
COC(=O)c1c(-c2ccc(OC)c(OC)c2)csc1N
  2%	?	0%	6%	3%	-19%	-11%	1.3%
Cc1c(C)n(CCC#N)c2ccc(Cl)cc12
  -24%	-15%	7%	1%	-6%	-10%	-16%	-6.1%
CCOc1cc(C(=O)OCC(=O)Nc2ccc(F)cc2Cl)ccc1OCC(=O)N1CCOCC1
  0%	.	-1%	-4%	.	-2%	3%	.
CC(C)C(c1nnnn1C1CCCCC1)N1CCCc2ccccc21 (stereo not given)
  -25%	7%	?	-25%	-3%	-23%	4%	-6.3%
Cc1cc(=O)n2nc(N3CCC(C(=O)NCC(C)c4ccccc4)CC3)sc2n1 (stereo not given)
  22%	15%	0%[46.1 µM]	?	.	-8%	-6%	.
CCOC(=O)C1CCN(C(=O)c2sc3ncnc(N4CCC(C)CC4)c3c2C)CC1
  -14%	-20%	?	-28%	27%	3%	3%	-8.3%
OC(CNC1CCCCC1)c1ccccc1 (stereo not given)
  -2%	0%	2%	-2%	11%	-15%	-8%	5.2%
Cn1cnc2ccc([N+](=O)[O-])cc2c1=O
  0%	5%	.	.	.	-6%	9%	.
C/C(=N\N1CCN(C)CC1)c1c(O)n(Cc2ccccc2)c(=O)[nH]c1=O
  13%	-5%	-4%	0%	-1%	-11%	-2%	-2.9%
COc1ccc(CC(=O)NNC(=O)c2ccoc2C)cc1OC
  -4%	24%	8%	6%	-5%	0%	1%	-1.1%
C/C(=N/NS(=O)(=O)c1ccc(CC(C)C)cc1)c1ccncc1
  -1%	-41%	.	.	.	26%	2%	.
Cc1cccc(N(CC(=O)NC(C)(C)C)C(=O)CCC(=O)Nc2nccs2)c1
  1%	8%	.	.	.	0%	-4%	.

# Three structures out of the list, sorted by molar mass, ascending:
# Under each structure – SARS PLpro yeast	NS1 inh	Marburg entry inh	LASV entry inh	Cruzain inh noDet	StopGo reporter	RE007 growth inh	Cruzain inh Det
O=C(CCC1CCCC1)NNC(=O)c1ccccc1O
  1%	.	8%	7%	.	8%	0%	.
CC(=O)N1CCN(Cc2nc(C(c3ccccc3)c3ccccc3)no2)CC1
  3%	-1%	16%[46.1 µM]	23%[46.1 µM]	.	-13%	14%	.
COc1cc([N+](=O)[O-])ccc1NC(=O)CSc1nncn1-c1cccnc1
  6%	4%	-3%[46.1 µM]	?	.	-13%	-10%	.

# Some of the entries above, set out differently.
molecule: C/C(=N/NS(=O)(=O)c1ccc(CC(C)C)cc1)c1ccncc1
  SARS PLpro yeast: -1% | NS1 inh: -41% | Marburg entry inh: . | LASV entry inh: . | Cruzain inh noDet: . | StopGo reporter: 26% | RE007 growth inh: 2% | Cruzain inh Det: .

molecule: Cc1cccc(N(CC(=O)NC(C)(C)C)C(=O)CCC(=O)Nc2nccs2)c1
  SARS PLpro yeast: 1% | NS1 inh: 8% | Marburg entry inh: . | LASV entry inh: . | Cruzain inh noDet: . | StopGo reporter: 0% | RE007 growth inh: -4% | Cruzain inh Det: .

# Full records, looked up by structure. Order of values: SARS PLpro yeast	NS1 inh	Marburg entry inh	LASV entry inh	Cruzain inh noDet	StopGo reporter	RE007 growth inh	Cruzain inh Det
# Profile of `CCOc1cc(C(=O)OCC(=O)Nc2ccc(F)cc2Cl)ccc1OCC(=O)N1CCOCC1` = 0%	.	-1%	-4%	.	-2%	3%	.
# Profile of `Cn1cnc2ccc([N+](=O)[O-])cc2c1=O` = 0%	5%	.	.	.	-6%	9%	.
# Profile of `Cc1cccc(N(CC(=O)NC(C)(C)C)C(=O)CCC(=O)Nc2nccs2)c1` = 1%	8%	.	.	.	0%	-4%	.

# Remaining list, next part.
# Under each structure – SARS PLpro yeast	NS1 inh	Marburg entry inh	LASV entry inh	Cruzain inh noDet	StopGo reporter	RE007 growth inh	Cruzain inh Det
CCN1C(=O)N(C)C2(c3ccccc3)N(C)C(=O)N(C)C12c1ccccc1 (stereo not given)
  3%	-3%	3%	0%	2%	-4%	6%	5.0%
COc1cc2[nH]c3c(N4CCN(c5ccccn5)CC4)ncnc3c2cc1OC
  10%	-35%	10µM*	?	-1%	18µM*	-6%	-5.8%
CS(=O)(=O)N(CC(=O)Nc1cccc(F)c1)c1cccc([N+](=O)[O-])c1
  2%	6%	-5%	-6%	-5%	-6%	-13%	-0.5%
Cc1cc2n(n1)CCC(=O)N2Cc1ccc(C(=O)Nc2ccc(Br)c(C)c2)cc1
  .	.	.	0%[46.1 µM]	?	-19%	.	-6.7%
c1ccc(Cn2ccc(-c3cnc(-c4ccccc4)s3)n2)cc1
  -3%	-93%	?	11µM*	4%	-17%	-10%	-2.8%
O=C(CNc1ccccc1C(=O)O)c1ccccc1
  1%	-6%	-7%	26%	.	57%[activator]	6%	.
COc1ccc(C(=O)OCC(=O)NC(=O)NC2CCCC2)cc1[N+](=O)[O-]
  0%	.	10%[46.1 µM]	-5%[46.1 µM]	.	-12%	7%	.
CCc1ccc(OCC(=O)NC(NC(=S)Nc2ccc(C)cc2C)C(Cl)(Cl)Cl)cc1 (stereo not given)
  1%	-8%	?	-27%	?	?	3%	1.2%
COc1ccccc1CNC(=O)CN(CCc1ccccc1)S(C)(=O)=O
  -4%	.	-9%[46.1 µM]	-22%[46.1 µM]	.	-4%	4%	.
CCOc1ccc(-n2nc(CO)c(C(=O)NCc3ccccn3)n2)cc1
  .	.	7%[46.1 µM]	2%[46.1 µM]	-7%	8%	.	-4.2%
